RE007 growth inh – qHTS Assay for Inhibitors of the HIV-1 protein Vpr. actives 0.21% (n = 360,000). Potency, µM (highest dose often 92.2 µM), for inactives: at the top dose activity change, negative = less growth. S. pombe RE007 Vpr strain, BacTiter-Glo ATP luminescence, 24 h; control for the full effect not named in the record; active = well fitted falling curve with a large enough effect; inconclusive = small, poorly fitted or top-dose-only effect; inactive = no such curve, though single readings can be large or run the other way;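 further: on the % scale 0 is the no-effect control and ±100 the full control effect; nearly all actives have a fitted effect of over 50% in size; the assay follows cell death caused by Vpr and the record does not say whether a fall means rescue or toxicity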
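Fission yeast RE007 carrying one integrated HIV-1 vpr copy, seeded at OD 0.01 in PMG+AL medium with 23 nL pinned compound. Grown 24 h at 30 degrees; viability read by BacTiter-Glo luminescence after 5 min.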
SARS PLpro yeast – qHTS of Yeast-based Assay for SARS-CoV PLP. S. cerevisiae expressing SARS-CoV PLpro, growth rescue; control for the full effect not named in the record. Potency, µM (top dose mostly 32.9 µM), for inactives: at the highest dose activity, positive = growth rescue. actives 0.19% (n = 330,000). AID 485353, 2010; active means well fitted rising curve with a large enough effect; inconclusive means small, poorly fitted or top-dose-only effect; inactive means no such curve, though single readings can be large or run the other way; further: 0% is about no effect; nearly all actives have a fitted effect of over 55% in size; growth read by luminescence after 48 h
StopGo reporter – High Throughput Screening for Foot and Mouth Disease Virus Antivirals | human cells with a luciferase reporter of 2A StopGo recoding; control for the full effect not named in the record | Potency, µM (highest dose often 57.9 µM), inactives show top-dose signal change, negative = less light | actives 1.2% (n = 410,000); active = well fitted falling curve with a large enough effect; inconclusive = small, poorly fitted or top-dose-only effect; inactive = no such curve, though single readings can be large or run the other way; tested in HEK293T cells; further: on the % scale 0 is the no-effect control and ±100 the full control effect; nearly all actives have a fitted effect of over 45% in size; luciferase light after 4 h
* marks the source's active call; other numbers are inactive results; ? = inconclusive; [ ] = dose if it differs, or a comment. Potency means the concentration at half of the fitted maximal effect. An excerpt; count on the stated rates, not on these rows.

Below each SMILES – SARS PLpro yeast	StopGo reporter	RE007 growth inh
- C=C[C@@H]1c2ccccc2N(S(=O)(=O)c2ccc(C)cc2)[C@H](c2ccc(OC(C)=O)cc2)C1(C#N)C#N
→ 0.4%	-26.6%	-2.4%
- Cn1c(N)c(C(=O)COC(=O)c2ccc(F)cc2Cl)c(=O)n(C)c1=O
→ -2.9%	0.0%	-0.3%
- O=C(CN1CCN(S(=O)(=O)c2ccccc2)CC1)N1CCc2ccccc21
→ -3.8%	-23.1%	5.8%
- CCOC(=O)c1cc(-c2ccccc2C)n(Cc2cc(C)no2)n1
→ -2.0%	-15.2%	4.8%
- C#CCOCCOCCOCCNc1nc(N2CCN(C(=O)CCCCCCCCCCNC(=O)[C@H](CCCCN)n3cc(CCO)nn3)CC2)nc(N2CCN(C(=O)CCCCCCCCCCNC(=O)[C@H](CCCCN)n3cc(C[C@@H](C)CC)nn3)CC2)n1
→ 4.1%	?	7.9%
- CCCn1c(Cc2ccccc2)nnc1SC(C)C(=O)NC1CC1 (configuration not stated)
→ -1.6%	-11.9%	1.6%
- Cc1cccc(NS(=O)(=O)c2cccc(C(=O)N3CCC3)c2)c1
→ 0.9%	58.7%[activator]	-12.5%
- CCN(C[C@H]1N[C@@](Cc2ccccc2)(C(=O)OC)[C@H]2C(=O)N(Cc3ccccc3)C(=O)[C@@H]12)C(=O)c1ccc(F)cc1
→ -1.1%	-19.9%	12.1%
- COc1cc(NC(=O)c2ccc(-c3cccc(F)c3)o2)ccc1NC(=O)c1ccccc1Cl
→ 1.8%	?	8.1%
- COc1ccccc1C(=O)NCCC(=O)NC1CCC(C)CC1 (configuration not stated)
→ -12.5%	44.1%[activator]	13.7%
- C[C@H](CO)N1C[C@H](C)[C@@H](CN(C)Cc2ccccc2)Oc2ccc(NC(=O)CCCCCC(=O)Nc3ccccc3N)cc2C1=O
→ 7.2%	-11.1%	-11.4%
- CCCCNc1c(-c2ccc(SC(C)CC)c(OC)c2)nc2ccc(Cl)cn12 (configuration not stated)
→ 0.5%	0.0%	-7.6%
- COc1cc(C(=O)NCC2CCCO2)cc(Br)c1OCc1ccccc1 (configuration not stated)
→ 2.6%	-24.9%	12.9%
- CCOc1[nH]n(-c2ccccc2)c(=O)c1C=Nc1ccc(F)cc1F
→ 1.5%	0.3%	4.6%
- COc1ccc2sc(-c3ccc(N(C)C)cc3)c(C#CCCO)c2c1
→ 3.2%	12.5%	-8.4%
- Cc1cc(C(=O)COC(=O)c2n[nH]c(=O)c3ccccc23)c(C)n1C(C)C
→ 8.8%[6.58 µM]	-12.1%	4.6%
- Cc1cc(C)c(S(=O)(=O)N2CCN(C3CC(=O)N(c4ccccc4Cl)C3=O)CC2)c(C)c1 (configuration not stated)
→ -9.1%	0.0%	-3.3%
- CCc1sc(C(=O)Nc2ccc(OC)c(S(=O)(=O)N3CCOCC3)c2)cc1C
→ -1.0%	?	11.6%
- CC(=O)c1cccc(NC(=O)c2ccc(OCc3c(C)noc3C)cc2)c1
→ -17.3%	?	-9.7%
- O=C(O)CCC(=O)OCCCc1cc2ccccc2c(=O)o1
→ -0.6%	6.9%	-6.4%
- COc1ccc(C(C)=O)cc1COC(=O)c1ccc2c(c1)OCCO2
→ 2.4%	-15.8%	6.8%
- Cc1cccc(C)c1NC(=O)CNC(=O)CCCN1C(=O)c2cccc3cccc(c23)C1=O
→ -1.2%	-26.8%	10.3%
- O=C(N/N=C1\CCCc2ccccc21)c1cccc(Br)c1
→ -4.0%	67.0%[activator]	-15.2%
- COc1ccc(CC2c3cc(OC)c(OC)cc3CC[N+]2(C)CCC(=O)OCCCCCOC(=O)CC[N+]2(C)CCc3cc(OC)c(OC)cc3C2Cc2ccc(OC)c(OC)c2)cc1OC (configuration not stated)
→ -1.4%	-18.8%	-13.5%[18.4 µM]
- COC(=O)[C@H](CCSC)NC(=O)Cn1cnc2c(SC)nc(N)nc21
→ -1.7%	-20.1%	9.0%
- CC(=O)NN1C(=O)c2ccccc2NC1c1ccco1 (configuration not stated)
→ 9.0%	-16.7%	19.9%
- COc1ccc(C)cc1NC(=O)CCCN1C(=O)NC(C)(C)C1=O
→ -6.9%	-8.6%	14.9%
- Cc1ccccc1OCC(=O)OCC(=O)Nc1ncc(Cl)c(C)c1Cl
→ -3.7%	-5.8%	1.1%
- N#Cc1cnn(-c2cccc(Cl)c2)c1N
→ 0.9%	-6.3%	3.6%
- CC(C)(C)C1C/C(=C/c2ccccn2)C(=O)/C(=C/c2ccccn2)C1 (configuration not stated)
→ -5.0%	3.55µM*	-11.0%
- Cc1c(C(=O)OCC(=O)N2CCCCC2C)oc2ccccc12 (configuration not stated)
→ -1.3%	56.5%[activator]	-4.9%
- CC(=O)Nc1nnc(SCC(=O)N2CCCc3ccccc32)s1
→ -1.1%	7.3%	-6.4%
- COc1ccc(NC(=O)Nc2cccc3c2O[C@H](CN(C)S(=O)(=O)c2ccccc2)[C@@H](C)CN([C@H](C)CO)C3=O)cc1
→ -2.0%	2.8%	1.7%
- COc1cccc(C(=O)COC(=O)COc2c(C)cc(C)cc2C)c1
→ -4.4%	-10.3%	1.4%
- C=C[C@H](CC(C)C)N(Cc1ccccc1)S(=O)(=O)N(Cc1ccc(OC)cc1)[C@H](C=C)CC(C)C
→ 2.9%	?	48.9%
- COc1ccccc1OCCCC(=O)Nc1ccc(N2CCOCC2)cc1
→ 0.6%	-9.1%	0.8%
- CCN(C[C@H]1N[C@@](Cc2ccccc2)(C(=O)OC)[C@H]2C(=O)N(Cc3ccccc3)C(=O)[C@@H]12)C(=O)Nc1ccc(Cl)cc1
→ -16.6%	23.2%	-18.2%
- O=C(Cn1cnc2ccccc21)Nc1ccc2c(c1)OCCCO2
→ -2.4%	-5.7%	2.8%
- Cc1ccc(O)c(CNCCNCc2cc(C)ccc2O)c1
→ 0.8%	-19.6%	-20.5%
- COc1ccc(/C=C/C(=O)Nc2cccc(S(=O)(=O)NC3=NCCCCC3)c2)cc1OC
→ 2.0%	39.8µM*	4.9%
- C[C@@H](NC(=O)c1nc[nH]c1C(=O)NCc1ccc(CNC(=O)OC(C)(C)C)cc1)c1ccccc1
→ 0.4%	?	10.6%
- O=C(COC(=O)c1ccc(O)cc1O)NC1CC1
→ 11.0%	12.5%	-10.4%
- CCOC(=O)NN1C(=O)c2ccccc2NC1c1ccc(OC)cc1OC (configuration not stated)
→ 6.1%	-20.0%	10.3%
- C[C@H](CO)N1C[C@H](C)[C@@H](CN(C)C(=O)Nc2ccccc2)Oc2c(NC(=O)NC3CCCCC3)cccc2C1=O
→ ?	45.9%[activator]	-5.5%
- C[C@@H](C(=O)N1CCN(c2ccccc2)CC1)N1C(=O)C2CC=CCC2C1=O (some centres not stated)
→ -3.3%	-12.2%	-4.5%
- COc1cc(C(=O)N2CCN(S(=O)(=O)c3ccc(C)cc3C)CC2)ccc1OCC(=O)N1CCOCC1
→ 1.2%	-13.5%	-14.0%
- CCOc1ccccc1NC(=O)C1CCCN1C(=O)c1cccs1 (configuration not stated)
→ 1.1%	-16.9%	7.8%
- O=[N+]([O-])c1ccccc1CNC1CCCc2ccccc21 (configuration not stated)
→ -5.5%	11.4%	-17.6%
- Cc1c(O)c(C)c2c(c1O)C(=O)C[C@@H](c1ccccc1)O2
→ 1.8%	-20.2%	5.9%
- C[C@H]1COC(=O)[C@@H](CC(=O)OC(C)(C)C)C/C=C\C[C@@H](CC(=O)N(CCO)Cc2ccccc2)C(=O)N1
→ -7.0%	-0.3%	3.8%

Compound profiles, from the list above:
O=[N+]([O-])c1ccccc1CNC1CCCc2ccccc21 (configuration not stated) as listed: SARS PLpro yeast: -5.5%; StopGo reporter: 11.4%; RE007 growth inh: -17.6%
O=C(COC(=O)c1ccc(O)cc1O)NC1CC1 as listed: SARS PLpro yeast: 11.0%; StopGo reporter: 12.5%; RE007 growth inh: -10.4%

(cont.)
Below each SMILES – SARS PLpro yeast	StopGo reporter	RE007 growth inh
- C=CCn1c(SCC(=O)N(CC)C2CCS(=O)(=O)C2)nc2cc(C(=O)O)ccc2c1=O (configuration not stated)
→ -0.4%	-10.4%	-2.0%
- c1cncc(-c2cn(C[C@H]3CC[C@H](Cn4cc(-c5cccnc5)nn4)O3)nn2)c1
→ 1.0%	-10.7%	-14.6%
- Cc1noc(C)c1NC(=O)N(C)C[C@@H]1Oc2c(NC(=O)NC(C)C)cccc2C(=O)N([C@@H](C)CO)C[C@@H]1C
→ 4.2%	-15.3%	1.2%
- NC(=S)N/N=C/c1cc([N+](=O)[O-])ccc1Cl
→ 4.0%	-22.4%	-15.6%
- COC(=O)C1=C(c2cccc(C#N)c2)C[C@@H]2CC[C@H]1N2C(=O)NCc1cccc2ccccc12
→ -0.2%	-24.6%	-5.7%
- O=C(COC(=O)CCC(=O)c1cccs1)Nc1ccccc1[N+](=O)[O-]
→ 5.5%	-10.1%	-5.3%
- O=C1CCCc2ccccc2N1
→ 0.9%	7.4%	3.9%
- CN(CC(=O)Nc1ccc(F)cc1)C(=O)Cc1ccsc1
→ 0.5%	-2.5%	3.2%
- COc1cc(OC)cc(-c2cc3ccc(F)cc3cn2)c1
→ 1.6%	22.5%	?
- O=C(OCC(=O)N(Cc1ccccc1)Cc1ccccc1)c1ccccc1O
→ -2.0%[6.58 µM]	-8.1%	0.7%
- O=C1C(Cc2ccccc2)Nc2ncnc(N3CCc4ccccc4C3)c2N1Cc1ccccc1 (configuration not stated)
→ 1.8%	-6.5%	-1.9%
- COc1ccccc1/C=C/C(=O)OCC(=O)Nc1ccc2c(c1)OCCO2
→ 5.0%	-4.2%	-8.0%
- Cn1nccc1C(=O)Oc1cccc(/C=N/NC(=O)c2ccccc2O)c1
→ -2.3%	-0.9%	6.1%
- C[C@H](CO)N1C[C@H](C)[C@@H](CN(C)C(=O)Nc2ccc(C(F)(F)F)cc2)Oc2c(NS(=O)(=O)c3ccccc3)cccc2C1=O
→ -0.6%	88.7%[activator]	5.0%
- C[C@H]1COC(=O)[C@H](CC(=O)OC(C)(C)C)C/C=C\C[C@@H](CC(=O)N[C@@H](CO)Cc2ccccc2)C(=O)N1
→ 1.5%	19.0%	0.2%
- CCC(C)C(NC(=O)C1CCC(C)CC1)C(=O)Nc1ccc(OC)cc1OC (configuration not stated)
→ 1.6%	23.5%	3.5%
- C/C(CCc1ccc2c(c1)OCO2)=N\NC(=S)NC(C)C
→ 19.2%	0.0%	2.6%
- CC1Nc2ncnc(N3CCOCC3)c2N(Cc2ccccc2)C1=O (configuration not stated)
→ -18.3%	-15.2%	-0.4%
- O=C(NCC(c1ccco1)N1CCCCC1)c1ccc(S(=O)(=O)Nc2ccccc2Cl)cc1 (configuration not stated)
→ 0.7%	-0.2%	1.8%
- COc1ccc(NC(=O)N(C)C[C@H]2Oc3c(NC(=O)Nc4ccc5c(c4)OCO5)cccc3C(=O)N([C@H](C)CO)C[C@@H]2C)cc1
→ 3.9%	1.8%	-20.3%
- Cc1ccc2oc(C(=O)Nc3cc(C)on3)c(C)c2c1
→ 2.1%	33.9%[activator]	2.8%
- Cc1cc(C)n(-c2ccc(C(=O)OCC(=O)N3CCN(c4ccccc4)CC3)cc2)n1
→ -4.8%	-27.5%	-2.3%
- C[C@@H]1CN([C@@H](C)CO)C(=O)c2cccc(NS(C)(=O)=O)c2O[C@H]1CN(C)Cc1ccc(Oc2ccccc2)cc1
→ 7.3%	-0.5%	11.5%
- CCCN(CC(=O)Nc1ccccc1C)C(=O)C1CC(=O)N(c2ccc(CC)cc2)C1 (configuration not stated)
→ -42.7%	0.1%	-15.2%
- CC[C@]12c3[nH]c4ccc(Cl)cc4c3CCN1C(=O)[C@@H](CC(=O)NCc1ccco1)C[C@@H]2C(=O)N1CCN(C(=O)C2CC2)CC1
→ 3.7%	-14.4%	6.0%
- Fc1ccc(-c2cc(C(F)(F)F)n3ncnc3n2)cc1
→ -3.7%	-5.0%	0.6%
- CCOC(=O)N1CCN(C(=O)COc2ccc3c(c2)C(=O)CC(C)(C)O3)CC1
→ -3.2%	-7.9%	-1.1%
- NS(=O)(=O)c1ccc(CCNC(=O)CSc2nc3ccsc3c(=O)n2CCCCC(=O)O)cc1
→ 1.4%	-1.4%	2.4%
- C[C@H](CO)N1C[C@H](C)[C@@H](CN(C)C(=O)Nc2ccc(C(F)(F)F)cc2)Oc2ccc(NC(=O)C3CCCCC3)cc2C1=O
→ 0.8%	-21.7%	-15.4%
- CC(=O)Nc1nc2ccccc2n1Cc1ccc(C)cc1
→ -0.2%	-12.5%	6.3%
- CCOc1ccc(S(=O)(=O)NCCC(=O)NCc2ccc(OC)c(OC)c2)cc1
→ 1.3%	-6.1%	9.5%
- Cc1noc(C)c1C(=O)OCC(=O)Nc1ccc(S(N)(=O)=O)cc1
→ 2.7%	8.5%	-1.1%
